GIRK2 act = activators of human GIRK2 potassium channels; G protein-activated inward rectifier potassium channel 2 (Homo sapiens), P48051; HEK293-GIRK2 thallium flux, Thallos fluorescence; calls only for hits at 25 µM; 63,000 tested, 0.05% active; AID 1259325, 2017;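 active = among the strongest 0.2% of first-round signals and kept after retests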;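 note: first round at about 10 µM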
Target sequence (P48051 whole entry, looked up): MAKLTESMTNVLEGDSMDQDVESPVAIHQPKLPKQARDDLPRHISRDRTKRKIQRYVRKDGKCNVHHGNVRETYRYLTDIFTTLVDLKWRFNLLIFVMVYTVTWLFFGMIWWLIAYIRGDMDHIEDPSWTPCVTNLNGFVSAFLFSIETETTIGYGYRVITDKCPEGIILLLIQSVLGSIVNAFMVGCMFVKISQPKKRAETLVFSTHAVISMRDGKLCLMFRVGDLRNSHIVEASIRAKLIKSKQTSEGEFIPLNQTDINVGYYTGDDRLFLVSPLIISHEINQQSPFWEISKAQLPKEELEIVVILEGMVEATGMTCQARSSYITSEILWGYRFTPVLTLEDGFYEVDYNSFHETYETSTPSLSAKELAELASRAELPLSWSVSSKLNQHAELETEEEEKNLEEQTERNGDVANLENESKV
Calls only; i = inactive. Only part of the results is shown; the hit share may differ from the screen's.

GIRK2 act | Molecule
i | Cc1nc(C)c(C(=O)N2CCN(c3ccc(-c4noc(C(F)(F)F)n4)cn3)CC2)s1
i | CCOC(=O)CCC(=O)Nc1ccc(-n2nnn(CC(=O)NCc3ccco3)c2=O)cc1
i | CCCCNC(=O)c1c(N)n(/N=C\c2cccs2)c2nc3ccccc3nc12
i | Cn1nnn(-c2ccc(NC(=O)c3ccc(S(=O)(=O)N4CCCCC4)cc3)cc2)c1=O
i | N#C/C(C(=O)Nc1ccccc1F)=C1/SC(Cc2ccc(Cl)cc2)C(=O)N1c1ccccc1 (centres undefined)
i | Cc1nc(-c2cccs2)sc1CNC(=O)c1ccc2nsnc2c1
i | Cc1cc(C(=O)Nc2nc3c(s2)CN(C(=O)c2cnn(-c4ccccc4)c2C)CC3)no1
i | Cn1c(=O)c2c(nc3n2CC(c2ccccc2)=NN3CCNc2ccccc2Cl)n(C)c1=O
i | CCc1nnc(C2CCN(C(=O)c3ccccc3Cl)CC2)s1
i | COc1ccc(NC(=O)CSc2nccnc2-n2nc(C)cc2C)cc1
i | Cc1ccc(-c2csc3c(=O)n(CC(=O)Nc4c(C)cccc4C)cnc23)cc1
i | CC1(C)CC[C@]2(C(=O)O)CC[C@]3(C)C(=CCC4[C@@]5(C)C[C@@H](O)[C@H](O)[C@@](C)(CO)C5CC[C@]43C)[C@@H]2[C@@H]1O (some centres undefined)
i | Oc1ccc(-c2cc(-c3ccc(Cl)cc3)n[nH]2)c(O)c1
i | CSCCC(C)(O)CNC(=O)C(=O)Nc1ccc2c(c1)OCO2 (centres undefined)
i | O=C(c1cncc(Br)c1)N1CCC(Oc2ncccc2Cl)CC1
i | O=C(Cn1c(C2CC(=O)N(CCc3ccccc3)C2)nc2ccccc21)N1CCOCC1 (centres undefined)
i | CN(C)c1ccc(C(=O)Nc2ccc(-c3nc4ccccc4[nH]3)cc2)cc1
i | CSc1ccc(-c2noc(-c3sccc3S(=O)(=O)N(C)c3ccc4c(c3)OCO4)n2)cc1
i | COc1cc(-n2c(=O)c3ccccc3n(Cc3c(F)cccc3Cl)c2=O)cc(OC)c1OC
i | O=C(CC(c1ccccc1)c1ccccc1)N1CCN(c2ncnc3c2nnn3-c2ccccc2)CC1
i | COc1ccc(OCc2noc(CNS(=O)(=O)Cc3ccccc3)n2)cc1
i | COc1ccc(OC)c(N2CCCn3c2nc2c3c(=O)n(CCC(C)C)c(=O)n2C)c1
i | Cc1ccc2nc(N3CC(C(=O)NC4CCN(Cc5ccccc5)CC4)C3)sc2c1
i | COc1ccc(CN2CCc3nc(SCc4cc(C)ccc4C)[nH]c(=O)c3C2)cc1
i | Cc1ccc(S(=O)(=O)c2cnc(SCC(=O)Nc3ccccc3F)nc2N)cc1

Entries above that contain fluorine:
GIRK2 act | Molecule
i | Cc1nc(C)c(C(=O)N2CCN(c3ccc(-c4noc(C(F)(F)F)n4)cn3)CC2)s1
i | N#C/C(C(=O)Nc1ccccc1F)=C1/SC(Cc2ccc(Cl)cc2)C(=O)N1c1ccccc1 (centres undefined)
i | COc1cc(-n2c(=O)c3ccccc3n(Cc3c(F)cccc3Cl)c2=O)cc(OC)c1OC
i | Cc1ccc(S(=O)(=O)c2cnc(SCC(=O)Nc3ccccc3F)nc2N)cc1

The listing picks up; the two compounds before the break are reprinted first.
GIRK2 act | Molecule
i | COc1ccc(CN2CCc3nc(SCc4cc(C)ccc4C)[nH]c(=O)c3C2)cc1
i | Cc1ccc(S(=O)(=O)c2cnc(SCC(=O)Nc3ccccc3F)nc2N)cc1
i | COC(=O)c1ccc(Oc2coc3cc(OS(C)(=O)=O)ccc3c2=O)cc1
i | O=C(NCC1(O)CCc2ccccc2C1)c1ccc2c(c1)OCO2 (centres undefined)
i | C#CC(C)(CC)OCC(O)CN1CCOCC1 (centres undefined)
i | O=C(NC1CC(=O)N(C2CC2)C1)c1cccs1 (centres undefined)
i | O=S(=O)(c1c(F)cccc1F)N1CCC(COCc2ccccc2)CC1
i | Cc1ccc(S(=O)(=O)N(C)c2ccc(C(=O)N3CCOCC3)cc2)cc1
i | COc1ccc(N2CCCn3c2nc2c3c(=O)n(Cc3cccc(C)c3)c(=O)n2C)cc1
i | COc1ccc(CCC(=O)N2CCN(CC(O)c3ccco3)CC2)cc1 (centres undefined)
i | CCOC(=O)Cn1c(=O)c2c(nc3n2CCCN3c2cc(C)ccc2OC)n(C)c1=O
i | COc1ccc(CCNc2ccc(S(=O)(=O)C(C)(C)C)nn2)cc1OC
i | COc1coc(C(=O)NC2CC2)cc1=O
i | O=C(Nc1nccs1)c1nnn(-c2ccccc2)c1-c1ccccn1
i | CCOCCn1c(=O)c2c(nc(-n3nc(C)c(C)c3C)n2CC)n(C)c1=O
i | CCOc1ccc(-c2nc(CSc3nc(-c4cccc(OC)c4)cc(=O)[nH]3)c(C)o2)cc1
i | COc1ccc(OCCn2c(CCNC(=O)c3ccco3)nc3ccccc32)cc1
i | COc1ccc(OCc2noc(CNC(=O)/C=C/c3cccs3)n2)cc1
i | O=C(COc1ccccc1)Nc1cnc(-n2cccn2)nc1
i | CCCc1c(C(=O)NCc2ccco2)nnn1-c1ccccc1
i | COc1ccccc1-n1ncc2c(C)nnc(SCC(=O)Nc3ccc4c(c3)OCO4)c21
i | O=c1c(Oc2ccc(Cl)cc2)coc2cc(O)ccc12
i | Cc1ccc(-n2c(C)c(C)n3c4c(=O)n(CC(N)=O)c(=O)n(C)c4nc23)cc1Cl
i | O=C(Cn1nc2c3sc(N4CCCC4)nc3ncn2c1=O)Nc1ccc(C(F)(F)F)cc1
i | CC(=O)Nc1ccc(S(=O)(=O)N2CC(c3nc(Cc4cccs4)no3)C2)cc1
i | Cc1ccc(-c2csc3ncnc(SCC(=O)NCc4ccc5c(c4)OCO5)c23)cc1
i | COc1ccccc1OCC(=O)N(CCc1cccs1)Cc1ccco1

Arranged by length of the SMILES (high to low): part of the list above
GIRK2 act | Molecule
i | CCOc1ccc(-c2nc(CSc3nc(-c4cccc(OC)c4)cc(=O)[nH]3)c(C)o2)cc1
i | CCCc1c(C(=O)NCc2ccco2)nnn1-c1ccccc1
i | O=C(NC1CC(=O)N(C2CC2)C1)c1cccs1 (centres undefined)

The results go on:
GIRK2 act | Molecule
i | O=S(=O)(c1ccc(OC(F)(F)F)cc1)N1CCC(Oc2ncccc2Cl)CC1
i | COc1cccc2cc(C(=O)NCCC(O)C(C)(C)C)oc12 (centres undefined)
i | COc1ccc(C(=O)Nc2cnc(N3CCOCC3)nc2)cc1OC
i | COCCn1c(=O)c2c(nc3n2CC(C)CN3c2cc(C)cc(C)c2)n(C)c1=O (centres undefined)
i | COc1ccccc1-n1ncc2c(C)nnc(SCC(=O)Nc3ccc(F)cc3F)c21
i | CSCC(C)(O)CNC(=O)c1c(C)cc(C)cc1C (centres undefined)
i | Cc1nnc(NC(=O)c2ccc(S(=O)(=O)NCc3cccnc3)cc2)s1
i | O=c1c2sccc2nc(SCc2nc(-c3ccc(Br)cc3)no2)n1C1CC1
i | CCNS(=O)(=O)c1ccc(NC(=O)c2ccc(S(=O)(=O)N3CCCC3)cc2)cc1
i | COC(=O)C(C)Oc1ccc2c(=O)c(-c3ccc(OC)c(OC)c3)coc2c1 (centres undefined)
i | C=CCn1c(SCC(=O)N2CCCCCC2)nc2scc(-c3ccc(OC)cc3)c2c1=O
i | Cc1cc(Br)ccc1NC(=O)Cn1nc2c(Sc3ccccc3)nccn2c1=O
i | Cc1cc(Br)ccc1NC(=O)c1cc(OCc2ccccc2)no1
i | Cc1c(Cl)cccc1NC(=O)Cn1c(C)nc(-c2ccccn2)cc1=O
i | CSCC(C)(O)CNC(=O)CCCc1ccccc1 (centres undefined)
i | O=C(NCCN1CCN(c2ccc(Cl)cc2)CC1)c1ccc(Br)o1
i | Cc1nnc(SC(C(=O)O)c2ccccc2)s1 (centres undefined)
i | COc1ccc(CCNC(=O)NCC2(c3cccs3)CCCC2)cc1
i | CCOc1cc(C(=O)Nc2ccc3c(c2)CCCN3C(=O)c2ccccc2)cc(OCC)c1OCC
i | O=S(=O)(NCC1(c2ccccc2)CCOCC1)c1ccccc1Cl
i | Cc1ccc(CSc2nc(CC(=O)N3CCN(S(C)(=O)=O)CC3)cs2)cc1
i | Cc1cccc(C)c1NC(=O)Cn1c(C)cc(C)c(-c2nc(-c3ccc4c(c3)OCO4)no2)c1=O
i | O=C(c1cc(Nc2ccccc2)c2ccccc2n1)N1CCSCC1
i | CCN(CC)C(=O)Oc1ccc2c(c1)O/C(=C\c1ccc(OC)c(OC)c1OC)C2=O
i | CCOc1cccc2sc(N(CCn3nc(C)cc3C)C(=O)c3cc(C)on3)nc12
i | COc1ccccc1CNC(=O)C(=O)NCC(O)c1ccoc1 (centres undefined)
i | O=C(Cc1ccc(Br)cc1)Nc1cc(OCc2ccc3c(c2)OCO3)ncn1
i | CCOc1ccc(CC(=O)NCC2CCN(C(=O)Oc3ccccc3)CC2)cc1
i | CNC(=O)C(=O)NCC(c1cccn1C)N1CCCC1 (centres undefined)
i | Cc1nc(-c2cccs2)sc1CNC(=O)CCS(=O)(=O)c1ccccc1
i | O=C(Nc1ccc(Oc2ccc3nc(NC(=O)c4ccco4)[nH]c3c2)cc1)Nc1cc(C(F)(F)F)ccc1F
i | O=C(NCC(O)C1CCCCC1)C1(c2ccccc2)CCOCC1 (centres undefined)
i | C=C(C)COc1ccc2cc(-c3ccc(OC)cc3OC)c(=O)oc2c1
i | O=C(NCCOc1ccccc1)NCC(O)c1ccoc1 (centres undefined)
i | CN1CCN(c2nc3c(c(=O)[nH]c(=O)n3C)n2CC(O)c2ccccc2)CC1 (centres undefined)
i | CCC(C(=O)O)n1cnc2ccccc2c1=O (centres undefined)
i | COC(=O)Cn1c(=O)c2c(nc(-n3nc(C)cc3C)n2CC(C)C)n(C)c1=O
i | O=C(NCC1CCN(c2ccccn2)CC1)C1(c2ccc(Cl)cc2)CCCC1
i | COc1cc(S(=O)(=O)N2CCCCCC2)c(C)cc1C
i | O=C(Cn1nc(S(=O)(=O)c2ccccc2)ccc1=O)NCC1CCCO1 (centres undefined)
i | CCCC(CCC)C(=O)N1CCN(c2ncnc3c2nnn3-c2ccc(C)cc2)CC1
i | CN(C)c1cccc(C(=O)NCC2(c3cccs3)CC2)c1
i | CSCC(C)(O)CNC(=O)CSc1ccc(F)cc1 (centres undefined)
i | Cc1cc(-c2ccco2)cc(C)c1/C=C/c1cncc(-c2nn[nH]n2)c1
i | CCOC(=O)CCn1c(=O)c2c(nc3n(-c4cccc(C)c4)c(-c4ccccc4)cn23)n(C)c1=O
i | CC1(C)COc2ccc(NS(=O)(=O)c3ccc4c(c3)CCCC4)cc2NC1=O
i | CCOC(=O)CCC(=O)NCC#CCOc1cccc(C(F)(F)F)c1
i | Cc1cc(C)c(S(=O)(=O)NCCCO)c(C)c1N(C)S(=O)(=O)c1ccccc1
i | O=C(Cn1nc(-c2cccs2)c2sc(N3CCCC3)nc2c1=O)NC1CCCC1
i | O=C(Nc1ccc(-n2nnc(C(=O)NC3CC3)n2)cc1)Nc1ccc(C(F)(F)F)cc1

Exported as tab-separated lines: entries from further up.
SMILES	GIRK2 act
CSCC(C)(O)CNC(=O)CSc1ccc(F)cc1 (centres undefined)	i
Cc1cc(-c2ccco2)cc(C)c1/C=C/c1cncc(-c2nn[nH]n2)c1	i
CCOC(=O)CCn1c(=O)c2c(nc3n(-c4cccc(C)c4)c(-c4ccccc4)cn23)n(C)c1=O	i
CC1(C)COc2ccc(NS(=O)(=O)c3ccc4c(c3)CCCC4)cc2NC1=O	i
CCOC(=O)CCC(=O)NCC#CCOc1cccc(C(F)(F)F)c1	i

Going on with the list.
GIRK2 act | Molecule
i | CSCC(C)(O)CNC(=O)Nc1cc(C)cc(C)c1 (centres undefined)
i | CC(=O)Nc1ccc(C(=O)NCCNS(=O)(=O)c2ccc(F)c(C(F)(F)F)c2)cc1
i | COc1ccccc1NC(=O)NCc1sc(-c2ccco2)nc1C
i | CC1CCN(S(=O)(=O)c2cccn(CC(=O)Nc3ccccc3C#N)c2=O)CC1
i | CC(O)(CNS(=O)(=O)c1cccnc1)c1ccco1 (centres undefined)
i | CC(C)c1c(C(=O)NCCO)nnn1-c1ccc(Br)cc1
i | N#Cc1ccc(C(=O)N(Cc2ccsc2)Cc2ccco2)cc1
i | COc1ccc(S(=O)(=O)NCCN2CCN(c3ccccc3F)CC2)c(C)c1
i | CCn1c(-c2nc(C(=O)N3CCC(O)CC3)cs2)cc2ccccc21
i | COc1ccc(CC(C)(O)CNC(=O)Cc2ccc(-c3ccccc3)cc2)cc1 (centres undefined)
i | C=CCn1c(SCC(=O)Nc2ccccc2C(=O)OC)nc2sc(C)cc2c1=O
i | COc1ccccc1NC(=O)CSc1nc2sc(C)cc2c(=O)n1Cc1ccco1
i | Cc1ccc(-n2ccnc(SCc3cccc([N+](=O)[O-])c3)c2=O)cc1
i | CC(C)c1noc(C2CC(=O)N(Cc3ccc4c(c3)OCO4)C2)n1 (centres undefined)
i | CCc1nc(SCc2csc(C)n2)c2c3c(sc2n1)CCC3
i | O=S(=O)(C1CCCCC1)N1Cc2cncnc2C1
i | O=C(CN1C(=O)CC(c2cccs2)CC1=O)Nc1ccc2c(c1)OCO2
i | COc1cccc2c(Nc3ccccc3)cc(C(=O)N3CCSCC3)nc12
i | CCN1/C(=C/C=C/C=C/C=C/c2sc3ccccc3[n+]2CC)Sc2ccccc21
i | CCNc1nc2c(c(=O)[nH]c(=O)n2C)n1CC(=O)c1ccc(C)cc1
i | O=C(Nc1nccs1)c1ccc(OCc2ccc3ccccc3n2)cc1
i | O=C(c1ccc(OC(F)(F)F)cc1)N1C2CCC1COC2
i | COc1ccc(S(=O)(=O)NCC(c2cccs2)N2CCc3ccccc3C2)cc1 (centres undefined)
i | COc1ccc(Cl)cc1NC(=O)Cn1cc(S(=O)(=O)N2CCCCC2)ccc1=O
i | CC(C)CCNC(=O)C1CCN(c2nc3ccsc3c(=O)n2Cc2ccc(F)cc2)CC1
i | Cc1nn(C(C)(C)C)c(OC(=O)COc2ccc(Cl)cc2)c1S(=O)(=O)c1ccccc1
i | O=C(Nc1ccc(OC(F)(F)F)cc1)c1cn(-c2cccc(Cl)c2)nn1
